YB-1 expr inh = YB-1 expression inhibition; U2OS, qRT-PCR YB-1 vs CDIP delta delta Cp, 16 h; stronger effect = higher value; zero = DMSO, each unit about twofold; delta delta Cp (YB-1 minus CDIP) (test concentration not listed); 30,000 tested, 0.37% active; AID 434959;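 active = delta delta Cp rounded down to an integer at or above 3, about 3 SD of DMSO wells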;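 also: higher means less YB-1 transcript or more CDIP transcript relative to DMSO; stock transfer was 100 nL into about 100 µL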
PD-1 reversal = reversal of PD-1 mediated T-cell inhibition | primary human CD4 T cells, PD-L1 beads, CellTiter-Glo 96 h | activation, % (test concentration not listed) | 29,000 tested, under 10 active;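 active = replicate mean of 50% or more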;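 also: 0% = median vehicle wells and 100% = positive control; 100 nL library stock added to about 50 µL; numbers are from one replicate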
MITF inhib = inhibitors of MITF; TRPM1 promoter luciferase, luminescence, 24 h; inhibition, % (concentration not given with the values); 37,000 tested, 0.28% active;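 active = most replicates at 85% or more, or half of them and the mean; inconclusive = half reach 85% but not the mean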;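 also: human melanocyte line stably carrying TRPM1 promoter luciferase reporter; 0% = vehicle wells and 100% = a positive control; the first replicate is given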
Shh pathway inh = blocks Sonic Hedgehog signaling | Shh-LIGHT2 Gli-luciferase reporter, 30 h | inhibition, % (no concentration beside the values) | 22,000 tested, 2.1% active;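 active = replicate mean of 65% or more; inconclusive = mean lower but half the replicates past it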;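 also: pathway switched on by Shh-conditioned medium diluted 1 in 25 in low serum; 100 nL library stock added to about 40 µL; 0% = median of neutral wells and 100% = positive control level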
The depositor's hits bear a star; u = inconclusive; x = no result given.

Values in the order – YB-1 expr inh	PD-1 reversal	MITF inhib	Shh pathway inh
1	Cc1ccc(S(=O)(=O)Nc2ccc3c(c2)CC(=O)N([C@H](C)CO)C[C@@H](C)[C@@H](CN(C)C(=O)Nc2ccc(C(F)(F)F)cc2)O3)cc1
→ -0.38	x	-1	x
2	C[C@@H]1CN([C@@H](C)CO)C(=O)c2cccc(NS(=O)(=O)c3cn(C)cn3)c2O[C@H]1CN(C)C(=O)Nc1ccc(C(F)(F)F)cc1
→ -0.12	x	3	-21
3	CC(C)NC(=O)N(C)C[C@@H]1Oc2ccc(NC(=O)Cc3ccccc3)cc2C(=O)N([C@H](C)CO)C[C@@H]1C
→ 0.38	-0.9	10	x
4	C[C@@H]1CCCCO[C@H](CN(C)S(=O)(=O)c2ccc(F)cc2)[C@@H](C)CN([C@H](C)CO)C(=O)c2cc(NC(=O)C3CCCCC3)ccc2O1
→ -0.15	-1.5	11	-13
5	C[C@@H]1CN([C@H](C)CO)C(=O)Cc2cc(NC(=O)Nc3ccc4c(c3)OCO4)ccc2O[C@@H]1CN(C)Cc1ccc(-c2ccccc2)cc1
→ -0.22	-6.9	38	41
6	Cc1ccc(Cl)cc1N(CC(=O)Nc1ccc(I)cc1)S(C)(=O)=O
→ x	-2.4	32	x
7	C[C@H]1CN([C@@H](C)CO)C(=O)Cc2cc(NC(=O)Nc3ccc4c(c3)OCO4)ccc2O[C@@H]1CN(C)Cc1ccccc1
→ -0.16	1.9	-9	29
8	C[C@@H]1CN([C@H](C)CO)C(=O)Cc2cc(NC(=O)CCCN(C)C)ccc2O[C@@H]1CN(C)S(=O)(=O)c1cccs1
→ -0.093	x	0	-1
9	COc1ccc(NC(=O)Nc2ccc3c(c2)CC(=O)N([C@H](C)CO)C[C@@H](C)[C@@H](CN(C)S(C)(=O)=O)O3)cc1
→ 0.012	0.4	0	x
10	C/C(=C\c1ccc(C(=O)O)cc1)c1ccc2c(c1)C(C)(C)CCC2(C)C
→ -0.24	5.7	-27	66*

Arranged by molecular weight (falling): 3 of the compounds above.
Values in the order – YB-1 expr inh	PD-1 reversal	MITF inhib	Shh pathway inh
2	C[C@@H]1CN([C@@H](C)CO)C(=O)c2cccc(NS(=O)(=O)c3cn(C)cn3)c2O[C@H]1CN(C)C(=O)Nc1ccc(C(F)(F)F)cc1
→ -0.12	x	3	-21
8	C[C@@H]1CN([C@H](C)CO)C(=O)Cc2cc(NC(=O)CCCN(C)C)ccc2O[C@@H]1CN(C)S(=O)(=O)c1cccs1
→ -0.093	x	0	-1
6	Cc1ccc(Cl)cc1N(CC(=O)Nc1ccc(I)cc1)S(C)(=O)=O
→ x	-2.4	32	x

(further entries)
Values in the order – YB-1 expr inh	PD-1 reversal	MITF inhib	Shh pathway inh
11	COc1ccc(-c2cc(SCCN3CCOCC3)c(C#N)c(-c3ccccc3)n2)cc1
→ 0.73	-1.4	-11	u
12	COc1ccc(NC(=O)N(C)C[C@H]2Oc3ccc(NS(=O)(=O)c4cn(C)cn4)cc3C(=O)N([C@H](C)CO)C[C@@H]2C)cc1
→ -0.37	1.5	7	-22
13	C[C@@H]1CN([C@@H](C)CO)C(=O)Cc2cc(NC(=O)Nc3cccc4ccccc34)ccc2O[C@@H]1CN(C)C(=O)Nc1cccc2ccccc12
→ -0.15	x	-10	-27
14	Cc1cccc(-c2noc(CN(C(C)C)S(=O)(=O)c3ccc(F)cc3)n2)c1
→ x	1.6	15	x
15	CC(C)NC(=O)Nc1cccc2c1O[C@@H](CN(C)CC1CC1)[C@H](C)CN([C@H](C)CO)C2=O
→ 0.26	1.8	2	-41
16	C[C@@H]1CN([C@H](C)CO)C(=O)c2cccc(NC(=O)Nc3ccccc3)c2O[C@@H]1CN(C)Cc1ccncc1
→ 0.5	0.7	-6	9
17	Cc1cc(C)cc(N(C(C)C(=O)Nc2cccc(C(F)(F)F)c2)S(C)(=O)=O)c1 (configuration not stated)
→ x	-0.8	18	x
18	CC(C)NC(=O)Nc1ccc2c(c1)C(=O)N([C@H](C)CO)C[C@H](C)[C@@H](CN(C)C(=O)NC1CCCCC1)OCCCC[C@@H](C)O2
→ 0.12	2.2	-1	-7
19	N#Cc1c(C(F)(F)F)cc(-c2ccccc2)nc1SCCC(=O)Nc1ccccc1
→ x	-1.4	29	x
20	Cc1ccc(NC(=O)CCN2C(=O)c3cccc([N+](=O)[O-])c3C2=O)c(Br)c1
→ x	0.9	-17	x
21	Cc1ccccc1OCc1nn2c(COc3ccccc3)nnc2s1
→ x	-0.6	-7	x
22	CC(C)=C1C[C@@]2(CO)C(=CC1=O)CC[C@@H](O)[C@@H]2C
→ 0.81	-0.2	-3	3
23	COc1ccccc1NC(=O)CNS(=O)(=O)c1ccc(C(C)(C)C)cc1
→ x	1.5	15	x
24	COc1ccc(S(=O)(=O)Nc2ccc3c(c2)C(=O)N([C@H](C)CO)C[C@H](C)[C@H](CN(C)S(=O)(=O)c2c(C)noc2C)O3)cc1
→ 0.044	-0.7	-4	6
25	C[C@H](CO)N1C[C@H](C)[C@H](CN(C)S(=O)(=O)c2cn(C)cn2)Oc2ccc(NC(=O)c3ccncc3)cc2C1=O
→ 0.097	0.5	-10	-12
26	Cc1ccc(S(=O)(=O)N(C)C[C@@H]2Oc3ccc(NC(=O)c4ccncc4)cc3C(=O)N([C@H](C)CO)C[C@@H]2C)cc1
→ 0.13	0.1	-3	12
27	O=C(O)/C=C/c1ccccc1O[C@@H]1O[C@H](CO)[C@@H](O)[C@H](O)[C@H]1O
→ -0.17	0.4	16	-7
28	COc1cccc2cc(C(=O)NCc3ccccn3)c(=O)oc12
→ x	3.6	-94	x
29	Cc1noc(C)c1NC(=O)Nc1ccc2c(c1)CC(=O)N([C@@H](C)CO)C[C@H](C)[C@H](CN(C)C(=O)Nc1ccc(F)cc1)O2
→ -0.38	x	11	11
30	Cc1cc(C(=O)Nc2cccc3c2O[C@@H](CN(C)S(C)(=O)=O)[C@H](C)CN([C@H](C)CO)C3=O)n(C)n1
→ 0.53	2.1	0	-38
31	CC(C)NC(=O)N(C)C[C@@H]1OCCCC[C@@H](C)Oc2ccc(NS(=O)(=O)c3cccs3)cc2C(=O)N([C@H](C)CO)C[C@@H]1C
→ -0.37	x	2	-28
32	Cc1sc2ncn(CC(=O)Nc3cccc(C(F)(F)F)c3)c(=O)c2c1-c1ccc(Cl)cc1
→ x	-2.0	55	x
33	C[C@H]1CN([C@@H](C)CO)C(=O)c2cc(NC(=O)Nc3ccc(F)cc3)ccc2O[C@H]1CN(C)Cc1ccc2c(c1)OCO2
→ -0.037	-0.9	7	-25
34	Cn1c(=O)oc2cc(S(=O)(=O)NCCC(=O)O)ccc21
→ x	1.1	-1	x
35	COc1ccc(S(=O)(=O)N(C)C[C@@H]2Oc3ccc(NS(=O)(=O)c4ccccc4)cc3CC(=O)N([C@H](C)CO)C[C@@H]2C)cc1
→ -0.27	0.5	7	1
36	CC(C)NC(=O)N(C)C[C@@H]1Oc2ccc(NC(=O)Nc3ccc(F)cc3)cc2C(=O)N([C@H](C)CO)C[C@@H]1C
→ 0.13	-0.2	-6	-51
37	Cc1noc(C)c1NC(=O)Nc1cccc2c1O[C@H](CN(C)Cc1ccc(-c3ccccc3)cc1)[C@@H](C)CN([C@H](C)CO)C2=O
→ 0.63	-3.4	42	-27
38	Cc1noc(C)c1NC(=O)N(C)C[C@@H]1OCCCC[C@@H](C)Oc2ccc(NS(=O)(=O)c3ccccc3)cc2C(=O)N([C@H](C)CO)C[C@@H]1C
→ 0.25	2.1	-5	-4
39	COc1ccc(CN(C)C[C@@H]2OCCCC[C@@H](C)Oc3ccc(NS(=O)(=O)c4ccc(Cl)cc4)cc3C(=O)N([C@H](C)CO)C[C@@H]2C)cc1
→ 0.23	-1.8	-4	-21
40	NS(=O)(=O)c1cc2c(cc1Cl)NC(CSCc1ccccc1)=NS2(=O)=O
→ -0.54	5.0	-2	28
41	Cc1nnc(SCC(=O)Nc2ccc(I)cc2C(C)C)s1
→ x	-0.9	50	x
42	C[C@H](CO)N1C[C@H](C)[C@H](CN(C)C(=O)Nc2ccc(F)cc2)Oc2ccc(NC(=O)Cn3cnnn3)cc2CC1=O
→ 0.26	x	-1	-18
43	C[C@H](CO)N1C[C@H](C)[C@@H](CN(C)Cc2ccc(C(F)(F)F)cc2)Oc2ccc(NC(=O)C3CCCCC3)cc2C1=O
→ 0.36	0.0	11	x
44	Cn1c(Cn2nnc(-c3ccccc3)n2)nnc1SCC(N)=O
→ x	1.7	-17	x
45	Cc1noc(C)c1NC(=O)Nc1ccc2c(c1)CC(=O)N([C@@H](C)CO)C[C@H](C)[C@@H](CN(C)S(=O)(=O)c1cn(C)cn1)O2
→ 0.1	0.3	-3	-9
46	C[C@H](CO)N1C[C@H](C)[C@H](CN(C)Cc2ccc(-c3ccccc3)cc2)Oc2ccc(NC(=O)Cc3ccccc3)cc2C1=O
→ -0.37	-3.7	10	31
47	CC(C)NC(=O)Nc1ccc2c(c1)CC(=O)N([C@H](C)CO)C[C@@H](C)[C@H](CN(C)CC1CCCCC1)O2
→ -0.08	x	4	-21
48	C[C@@H]1CN([C@@H](C)CO)C(=O)c2cccc(NC(=O)C3CC3)c2O[C@H]1CN(C)Cc1ccc(C(F)(F)F)cc1
→ -0.00033	-5.4	41	-12
49	O=C1c2ccccc2C(=O)N1CCc1nc2ccccc2c(=O)n1-c1nc2ccccc2s1
→ x	-0.5	-34	x
50	COc1ccc(S(=O)(=O)Nc2cccc3c2O[C@@H](CN(C)S(=O)(=O)c2cccs2)[C@@H](C)CN([C@H](C)CO)C3=O)cc1
→ -0.66	1.4	1	-2
51	Cc1cc2nn(-c3ccc(Cl)cc3)nc2cc1NC(=O)COc1ccccc1C
→ x	1.7	-19	x
52	C[C@H]1CN([C@@H](C)CO)C(=O)c2cc(NC(=O)NC3CCCCC3)ccc2O[C@H]1CN(C)Cc1ccc(C(=O)Nc2ccccc2N)cc1
→ -0.077	-1.9	4	x
53	Cc1ccc(S(=O)(=O)Nc2cccc3c2O[C@H](CN(C)Cc2ccc(C(=O)O)cc2)[C@@H](C)CN([C@@H](C)CO)C3=O)cc1
→ -0.41	0.9	-8	-19
54	C[C@H]1CN([C@@H](C)CO)C(=O)Cc2cc(NC(=O)c3ccncc3)ccc2O[C@H]1CN(C)C(=O)Nc1cccc2ccccc12
→ -0.39	0.2	0	x
55	C[C@@H]1CN([C@H](C)CO)C(=O)Cc2cc(NC(=O)Nc3ccc(F)cc3)ccc2O[C@H]1CN(C)S(=O)(=O)c1cccs1
→ -0.38	-1.4	-4	x

Copied from above, compounds 38–52
Values in the order – YB-1 expr inh	PD-1 reversal	MITF inhib	Shh pathway inh
38	Cc1noc(C)c1NC(=O)N(C)C[C@@H]1OCCCC[C@@H](C)Oc2ccc(NS(=O)(=O)c3ccccc3)cc2C(=O)N([C@H](C)CO)C[C@@H]1C
→ 0.25	2.1	-5	-4
39	COc1ccc(CN(C)C[C@@H]2OCCCC[C@@H](C)Oc3ccc(NS(=O)(=O)c4ccc(Cl)cc4)cc3C(=O)N([C@H](C)CO)C[C@@H]2C)cc1
→ 0.23	-1.8	-4	-21
40	NS(=O)(=O)c1cc2c(cc1Cl)NC(CSCc1ccccc1)=NS2(=O)=O
→ -0.54	5.0	-2	28
41	Cc1nnc(SCC(=O)Nc2ccc(I)cc2C(C)C)s1
→ x	-0.9	50	x
42	C[C@H](CO)N1C[C@H](C)[C@H](CN(C)C(=O)Nc2ccc(F)cc2)Oc2ccc(NC(=O)Cn3cnnn3)cc2CC1=O
→ 0.26	x	-1	-18
43	C[C@H](CO)N1C[C@H](C)[C@@H](CN(C)Cc2ccc(C(F)(F)F)cc2)Oc2ccc(NC(=O)C3CCCCC3)cc2C1=O
→ 0.36	0.0	11	x
44	Cn1c(Cn2nnc(-c3ccccc3)n2)nnc1SCC(N)=O
→ x	1.7	-17	x
45	Cc1noc(C)c1NC(=O)Nc1ccc2c(c1)CC(=O)N([C@@H](C)CO)C[C@H](C)[C@@H](CN(C)S(=O)(=O)c1cn(C)cn1)O2
→ 0.1	0.3	-3	-9
46	C[C@H](CO)N1C[C@H](C)[C@H](CN(C)Cc2ccc(-c3ccccc3)cc2)Oc2ccc(NC(=O)Cc3ccccc3)cc2C1=O
→ -0.37	-3.7	10	31
47	CC(C)NC(=O)Nc1ccc2c(c1)CC(=O)N([C@H](C)CO)C[C@@H](C)[C@H](CN(C)CC1CCCCC1)O2
→ -0.08	x	4	-21
48	C[C@@H]1CN([C@@H](C)CO)C(=O)c2cccc(NC(=O)C3CC3)c2O[C@H]1CN(C)Cc1ccc(C(F)(F)F)cc1
→ -0.00033	-5.4	41	-12
49	O=C1c2ccccc2C(=O)N1CCc1nc2ccccc2c(=O)n1-c1nc2ccccc2s1
→ x	-0.5	-34	x
50	COc1ccc(S(=O)(=O)Nc2cccc3c2O[C@@H](CN(C)S(=O)(=O)c2cccs2)[C@@H](C)CN([C@H](C)CO)C3=O)cc1
→ -0.66	1.4	1	-2
51	Cc1cc2nn(-c3ccc(Cl)cc3)nc2cc1NC(=O)COc1ccccc1C
→ x	1.7	-19	x
52	C[C@H]1CN([C@@H](C)CO)C(=O)c2cc(NC(=O)NC3CCCCC3)ccc2O[C@H]1CN(C)Cc1ccc(C(=O)Nc2ccccc2N)cc1
→ -0.077	-1.9	4	x

Compound activity deposited in PubChem BioAssay by Broad Institute.

This is a subset; rates above refer to the full screens.
